Source: PubChem (National Center for Advancing Translational Sciences (NCATS))
MARV entry inh: Marburg virus entry inhibition; Marburg virus pseudotyped entry inhibition, cell reporter; control for the full effect not named in the record; about a third of the inactives were read at about 46 µM; Potency, µM (highest dose often 37.8 µM), for the others: at the highest dose activity change, negative = inhibition, usual class: inhibitors; 300,000 compounds, 1.8% hits; active = well fitted inhibition curve with a large enough effect; inconclusive = small, poorly fitted or top-dose-only effect, or effect the other way; inactive = flat fitted curve, though single readings scatter; tested in HEK293 cells; about a fifth of its hits are not listed in these tables; also: % is scaled to controls: 0 for no effect and ±100 for the full control effect; luciferase read-out
RE007 growth inh: less growth of the S. pombe RE007 Vpr strain. S. pombe RE007 Vpr strain, BacTiter-Glo ATP luminescence, 24 h; control for the full effect not named in the record. Potency, µM (doses to about 92.2 µM), without a hit: top-dose activity change, negative = less growth. 360,000 compounds, 0.21% hits; active = well fitted falling curve with a large enough effect; inconclusive = small, poorly fitted or top-dose-only effect; inactive = no such curve, though single readings can be large or run the other way;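 also: % is scaled to controls: 0 for no effect and ±100 for the full control effect; nearly all actives have a fitted effect of over 50% in size; the assay follows cell death caused by Vpr and the record does not say whether a fall means rescue or toxicity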
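Fission yeast RE007 carrying one integrated HIV-1 vpr copy, seeded at OD 0.01 in PMG+AL medium with 23 nL pinned compound. Grown 24 h at 30 degrees; viability read by BacTiter-Glo luminescence after 5 min.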
Cruzain inh noDet: cruzain (T. cruzi) inhibition without detergent; P25779; 200,000 compounds, 2.3% hits; purified cruzain, Z-FR-AMC fluorescence, no detergent; Potency, µM, without a hit: max response, negative = inhibition, hits mostly inhibitors; AID 1476; active = well fitted curve in the direction sought with a large enough effect; inconclusive = small, poorly fitted or top-dose-only effect, or another doubt; inactive = no such curve, though single readings can be large; an effect the other way counts as inactive or inconclusive;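 also: plate controls were enzyme without inhibitor for no effect and buffer without enzyme for full effect; nearly all actives have a fitted effect of over 40% in size; top concentration of the series not given in the record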
Target sequence (P25779 123-467 limits assumed): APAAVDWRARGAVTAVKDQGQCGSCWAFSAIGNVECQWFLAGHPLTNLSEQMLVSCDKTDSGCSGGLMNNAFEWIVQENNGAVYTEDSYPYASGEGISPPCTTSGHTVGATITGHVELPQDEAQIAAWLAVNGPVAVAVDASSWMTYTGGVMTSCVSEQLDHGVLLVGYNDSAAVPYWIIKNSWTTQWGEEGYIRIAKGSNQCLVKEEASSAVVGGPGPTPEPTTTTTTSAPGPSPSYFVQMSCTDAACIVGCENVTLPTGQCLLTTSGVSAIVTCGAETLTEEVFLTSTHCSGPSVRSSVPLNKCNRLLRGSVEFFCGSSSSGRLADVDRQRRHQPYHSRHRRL
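Detergent-free condition (0.00005% Triton X-100) in acetate buffer pH 5.5 with DTT. 1.5 nM enzyme and compound were pre-mixed 15 min, then 2 uM Z-FR-AMC substrate added; reaction progress from fluorescence change between first and third reads (60 s).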
Lassa entry inh: inhibitors of Lassa virus binding or cell entry | Lassa virus pseudotype entry inhibition, cell reporter; control for the full effect not named in the record | 300,000 compounds, 1.2% hits | Potency, µM (top dose mostly 37.9 µM), inactives show at the top dose activity change, negative = inhibition, usual class: inhibitors | AID 540256; active means well fitted inhibition curve with a large enough effect; inconclusive means small, poorly fitted or top-dose-only effect, or effect the other way; inactive means flat fitted curve, though single readings scatter; tested in HEK293 cells; also: % is scaled to controls: 0 for no effect and ±100 for the full control effect; nearly all actives have a fitted effect of over 50% in size; luciferase read-out
NS1 function inh: blocks influenza NS1 protein function; S. cerevisiae slowed by influenza A NS1, growth recovery by OD600; Potency, µM (doses to about 46.1 µM), inactives show at the top dose activity, positive = more growth; 270,000 compounds, 0.4% hits; AID 2326; also: actives are rising curves; nearly all actives have a fitted effect of over 50% in size
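Growth recovery, yeast-based: influenza A NS1 expressed in S. cerevisiae causes slow growth, and suppressors are detected by OD600. The parent strain without NS1 is used as positive control.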
SARS PLpro yeast: blocks SARS-CoV papain-like protease in a yeast assay; S. cerevisiae expressing SARS-CoV PLpro, growth rescue; control for the full effect not named in the record; Potency, µM (titrated, usually from 32.9 µM), without a hit: top-dose activity, positive = growth rescue; 330,000 compounds, 0.19% hits; AID 485353; also: 0% is about no effect; nearly all actives have a fitted effect of over 55% in size; growth read by luminescence after 48 h
Cruzain inh Det: inhibitors of Trypanosoma cruzi cruzain with detergent; Potency, µM, without a hit: max response, negative = inhibition, most hits filed as inhibitors; 200,000 compounds, 0.43% hits; purified cruzain, Z-FR-AMC fluorescence, 0.01% Triton; P25779; active = well fitted curve in the direction sought with a large enough effect; inconclusive = small, poorly fitted or top-dose-only effect, or another doubt; inactive = no such curve, though single readings can be large; an effect the other way counts as inactive or inconclusive;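 also: plate controls were neutral wells for no effect and buffer without enzyme for full effect; nearly all actives have a fitted effect of over 40% in size; top concentration of the series not given in the record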
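Read-out: AMC fluorescence (360 nm excitation, 450 nm emission), four reads over 2 min, first-to-third difference used. Conditions: cruzain 1.5 nM, Z-FR-AMC 2 uM, pH 5.5 acetate, 5 mM DTT, 0.01% Triton X-100.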
2A StopGo: FMDV 2A StopGo reporter, luciferase signal; human cells with a luciferase reporter of 2A StopGo recoding; control for the full effect not named in the record; Potency, µM (doses to about 57.9 µM), without a hit: at the highest dose signal change, negative = less light; 410,000 compounds, 1.2% hits; AID 1159524; active = well fitted falling curve with a large enough effect; inconclusive = small, poorly fitted or top-dose-only effect; inactive = no such curve, though single readings can be large or run the other way; tested in HEK293T cells; also: % is scaled to controls: 0 for no effect and ±100 for the full control effect; nearly all actives have a fitted effect of over 45% in size; luciferase light after 4 h
Starred values were filed as active, the others as inactive; ? = inconclusive; . = not tested or not shown; & = joins results of further samples; [ ] = remark or other dose. Unless noted, calls follow the shape of the dose curve; as a rule, active means well fitted rising curve with a large enough effect; inconclusive means small, poorly fitted or top-dose-only effect; inactive means no such curve, though single readings can be large or run the other way. Potency is read from the fitted curve at half-maximal effect. Compounds as they come; 4.6% or so of the library scored in one or more.

SMILES	MARV entry inh	RE007 growth inh	Cruzain inh noDet	Lassa entry inh	NS1 function inh	SARS PLpro yeast	Cruzain inh Det	2A StopGo
COCCn1c(-c2ccc(Br)cc2)csc1=Nc1cccnc1	?	2.5%	.	.	.	-1.8%	.	31.6µM*
O=C(NNc1cccc(Cl)n1)c1cccnc1Cl	15.1%	-1.1%	4.5%	7.0%	8.0%	8.8%	-0.1%	-5.8%
COc1ccc2cc(C(=O)O)n(CC(=O)c3ccccc3)c2c1	.	-4.0%	.	.	0.7%	0.7%	.	15.8%
CCOC(=O)c1nn(-c2ccc(Cl)cc2C)ccc1=O	.	-7.3%	.	.	-6.5%	5.1%	.	-13.8%
O=c1c(N2CCOCC2)c(N2CCOCC2)c1=O	.	6.7%	.	.	1.9%	-1.6%	.	-14.0%
CCOC(=O)CC(=O)CSc1nc2ccccc2c(=O)n1-c1ccc(C(=O)N2CCOCC2)cc1	?	5.0%	17.5%	17.9%[14.3 µM]	2.6%	6.0%	12.7%	-12.2%
COCCNC(=O)C(c1ccc(C)o1)N(C(=O)c1snc(C(N)=O)c1N)c1cc(C)cc(C)c1 (stereo not given)	1.1%&-26.4%	-4.2%	?	?	-4.8%	3.8%	4.2%	.
CCCc1cc(C(=O)OC)c(NC(=O)c2cc(C)on2)s1	-26.5%	6.1%	?	-9.3%	-2.5%	-27.9%	-12.2%	-3.1%
Cc1nc2nc(SCC(=O)NCCCN3CCCCCC3)nn2c(C)c1Cc1ccccc1	?	-18.8%	.	?	14.9%	0.3%	.	-11.5%
c1ccc(C2=Nn3c(nnc3-c3ccccn3)SC2)cc1	-3.1%	3.2%	1.9%	7.5%	3.2%	-14.1%	1.8%	?
COCC(C)NCc1ccc(C)cc1C (stereo not given)	15.7%	3.3%	0.8%	9.6%	-7.6%	3.0%	2.7%	-6.9%
COC(=O)C1C(=O)c2c([nH]c(C(=O)OCC3CCCO3)c2C)CC1C (stereo not given)	.	-8.2%	-5.4%	.	1.2%	0.0%	-2.9%	0.0%
CCOC(=O)c1[nH]c(C)c(C(=O)NCc2ccc(F)cc2)c1C	-5.7%[46.1 µM]	.	8.9%	1.4%[46.1 µM]	.	.	-8.1%	-20.8%
COc1ccc(S(=O)(=O)N2CCN(C3CCCC(C)C3)CC2)cc1 (stereo not given)	-12.4%[46.1 µM]	4.0%	.	4.7%	-13.2%	-3.1%	.	16.4%
COCCNC(=O)c1cc2nc3c(c(C(F)(F)F)n2n1)CCc1ccccc1-3	-7.9%[46.1 µM]	2.1%	.	8.6%	5.3%	-0.8%	.	-4.4%
O=S(=O)(NCC1CCCO1)c1cccc(S(=O)(=O)N2CCCC2)c1 (stereo not given)	-21.3%	-0.5%	-7.8%	-6.0%	-5.9%	0.6%	2.4%	25.0%
Cc1ccc(C(=O)C(SC(C)(C)C)n2cncn2)cc1 (stereo not given)	.	2.6%	.	.	-70.3%	-7.5%	.	-11.8%
COC(=O)C1=C(NC(=O)c2ccccc2[N+](=O)[O-])CCS1	0.9%[46.1 µM]	13.7%	.	18.7%[46.1 µM]	.	2.2%	.	2.0%
COc1ccc2nc(SCC(=O)O)nc(C)c2c1	16.4%&16.4%[46.1 µM]	26.2%	11.1%	12.9%	-5.3%	-2.6%	-7.2%	-6.5%
O=[N+]([O-])c1ccc(Nc2cccc3c2[nH]c2c(-c4ccccc4)nccc23)c([N+](=O)[O-])c1	-4.1%	1.0%	.	-0.9%[46.1 µM]	.	.	.	-19.6%
CC(C)(C)NS(=O)(=O)c1ccc(N2C(=O)c3ccccc3C2=O)cc1	-2.4%	-29.7%[3.69 µM]	5.7%	-1.1%	0.6%	11.1%	1.4%	-17.7%
COC(=O)C1=C(C(=O)OC)[C@@H]2N(C)c3ccc(OC)cc3[C@@]23C[C@@H](C(=O)OC)N=C3N1	.	-0.2%	.	.	-10.3%	-3.1%	.	-16.9%
CCOC(=O)C1=C(COC(=O)c2ccc(OC)c(OC)c2OC)NC(=O)NC1C (stereo not given)	6.8%	2.1%	.	-27.5%	.	0.9%	.	-2.2%
CN(CC(=O)Nc1ccc(F)cc1)C(=O)c1cccc(S(=O)(=O)N2CCN(c3ccc(F)cc3)CC2)c1	?	-3.2%	.	?	.	16.0%	.	?
Cc1cc(C)n(-c2ccc(C(=O)OCC(=O)c3c(N)n(C)c(=O)n(C)c3=O)cc2)n1	0.1%[46.1 µM]	14.4%	?	-1.7%	-12.8%	-2.1%	-3.1%	?

(next part)
SMILES	MARV entry inh	RE007 growth inh	Cruzain inh noDet	Lassa entry inh	NS1 function inh	SARS PLpro yeast	Cruzain inh Det	2A StopGo
CCOc1ccc(NC(=O)CSc2nc3nc(C)c(Cc4ccccc4)c(C)n3n2)cc1	.	.	6.4%	19.6%[46.1 µM]	.	.	-0.9%	-12.1%
COc1ccccc1C(=O)Nc1ccnn1C1CCN(C(=O)c2cnsn2)CC1	-10.8%	-5.3%	.	?	-0.4%	?	.	40.2%[activator]
Cc1cc(/C=C2\C(=N)N3N=C(CC(=O)N4CCOCC4)SC3=NC2=O)c(C)n1Cc1ccccc1	.	-2.1%	.	.	4.6%	0.3%	.	-6.0%
C=CCC(C)(NCc1ccccc1)c1ccc(C)cc1 (stereo not given)	?	-6.6%	-5.1%	?	-1.9%	8.7%	-0.3%	-9.7%
CCc1nnc(NC(=O)c2ccc(OC)c(S(=O)(=O)N3CCCC3)c2)s1	?	25.5%	.	-6.0%	.	-0.6%	.	-12.3%
Cc1ccc(Cl)cc1N1CCN(S(=O)(=O)c2cn(C)cn2)CC1	.	-11.6%	.	.	-3.2%	0.6%	.	-12.7%
CC(NC(=O)Cc1ccccc1)C(c1ccccc1)N1CCOCC1 (stereo not given)	-0.5%	18.0%	.	0.6%[46.1 µM]	.	18.7%	.	0.5%
COC(=O)Cn1c(N2CCCC2)nc2c1c(=O)n(C)c(=O)n2C	.	8.7%	.	.	8.9%	3.1%	.	-15.6%
CCc1ccccc1NC(=O)c1cccs1	-6.2%	-19.2%	3.6%	9.3%	6.1%	1.6%	5.8%	-7.1%
O=C(Nc1cc(-c2nc3cc(Cl)ccc3o2)ccc1Cl)c1cc([N+](=O)[O-])ccc1N1CCOCC1	5.5%[46.1 µM]	.	-5.7%	9.1%[46.1 µM]	.	.	-1.0%	6.1%
Cc1[nH]c2ccccc2c1/C=N/NC(=O)c1cccc(S(=O)(=O)Nc2cccc(C(F)(F)F)c2)c1	.	-1.6%	.	.	7.0%	0.6%	.	11.0%
COc1cccc(CNC(=O)C2CCN(S(=O)(=O)c3ccccc3)CC2)c1	1.3%	-6.6%	-0.7%	-4.9%	-9.1%	-16.1%	2.9%	-15.2%
CCN(CC(=O)Nc1ccccc1OC)CC(=O)Nc1c(Cl)ccc(C)c1Cl	-24.1%[46.1 µM]	-10.3%	.	-18.0%	.	0.8%	.	?
CN(C)c1ccc(C=NNc2ccccn2)c(Cl)c1	?	4.6%	.	20.6%	.	.	.	34.6%[activator]
COc1ccc(CN2C(=O)N(c3ccc(F)cc3)C(=O)C2CC(=O)Nc2ccccc2)cc1 (stereo not given)	-20.3%[46.1 µM]	.	-7.3%	-4.1%[46.1 µM]	.	.	-4.5%	-13.6%
COc1ccc(C2CC(=O)N(CC(=O)Nc3cccc(C)c3C)c3ccccc3S2)cc1OC (stereo not given)	?	.	?	.	.	.	-1.7%	?
C=CCn1sc(N)c(C(=O)OCC)c1=S	?	-17.3%	-13.8%	2.1%	-51.8%	0.3%	-1.5%	13.4%
COCC(=O)Nc1ccc(Br)cc1C	-0.7%[46.1 µM]	-12.2%	.	5.6%[46.1 µM]	.	-0.1%	.	-3.7%
Cc1ccc(S(=O)(=O)CCC(=O)NNC(=O)CN(C)S(=O)(=O)c2ccc(C)cc2)cc1	3.6%	6.3%	.	-1.2%	.	1.8%	.	-14.5%
Cc1cccc(C)c1-n1ncc(C(=O)N2CCN(c3ncccn3)CC2)c1C1CCN(C(=O)OC(C)(C)C)CC1	.	.	-8.6%	-14.5%[46.1 µM]	.	.	-1.6%	0.0%
CC1CC(=O)C(C(C2=C(O)CC(C)CC2=O)c2ccccc2)=C(O)C1 (stereo not given)	-5.3%	-8.0%	.	-3.7%	.	.	.	-20.1%
CCC(c1nnc(SCC(=O)Nc2ccc(Cl)cc2C(F)(F)F)n1C1CCCCC1)N(C)C (stereo not given)	?	19.9%	-7.2%	12.6µM*	-16.7%	14.8%	-1.1%	-9.8%
CC/C(=N\N=C(/CC)c1ccccc1N)c1ccccc1N	3.9%[46.1 µM]	-8.5%	.	8.8%[46.1 µM]	.	.	.	4.9%
CC(C)(C)C1=Nn2c(nnc2-c2ccccc2F)SC1	0.6%	-3.2%	7.2%	16.0%	-10.7%	4.3%	-1.0%	6.0%
CCOc1ccc(CNCCCSc2nnnn2C)cc1OC	11.0%[46.1 µM]	.	-14.2%	8.3%[46.1 µM]	.	.	-0.1%	6.0%

Additional compounds:
SMILES	MARV entry inh	RE007 growth inh	Cruzain inh noDet	Lassa entry inh	NS1 function inh	SARS PLpro yeast	Cruzain inh Det	2A StopGo
Nc1ccc(C(=O)N/N=C2\CCCc3c2[nH]c2ccccc32)cc1	10.7%	-6.0%	2.4%	-1.1%	10.9%	2.4%	-14.2%	13.0%
Cc1nc2c(Br)cc(Br)cc2c(=O)n1-c1ccccc1NC1OCC(O)C(O)C1O (stereo not given)	?	9.2%	.	-6.1%	.	.	.	-15.0%
O=C(CN1C(=O)C2CC=CCC2C1=O)Nc1nnc(SCc2ccc(Cl)cc2)s1 (stereo not given)	-6.0%	-4.7%	-19.7%	0.2%	19.5%	-4.6%	-3.0%	-6.3%
Cc1ccc(Cn2ccnc2SCC(=O)Nc2nnc(C)s2)cc1	.	.	-16.4%	1.6%[46.1 µM]	.	.	0.8%	-9.3%
CCc1ccccc1N(C)S(=O)(=O)c1ccc(-c2cc(C)no2)s1	.	-0.7%	.	.	2.3%	1.3%	.	15.6%
O=C(N[C@@H](Cc1ccccc1)C(=O)CCl)OCc1ccccc1	16.4µM*	-13.9%	0.316µM*	3.26µM*	-32.2%	.	0.159µM*	31.6µM*
Cc1cc(Cl)ccc1OCC(=O)N/N=C/c1ccc(OC2OC(CO)C(O)C(O)C2O)cc1 (stereo not given)	-5.5%[46.1 µM]	-11.1%	.	?	-2.7%	-1.3%	.	-11.1%
